Source: PubChem
OX1R antag-1 = antagonists of human orexin 1 receptor (OX1R) | Orexin/Hypocretin receptor type 1 (Homo sapiens), O43613 | OX1R-expressing cells, FRET antagonist read-out | inhibition, % at 6.6 µM | 330,000 tested, 1.8% active | AID 485270, 2010; in the data active = inhibition mostly above about 38%, no sharp cut-off; inactive = mostly below about 40%;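 also: 0% = agonist challenge alone and 100% = reference antagonist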
Target sequence (O43613 whole entry, looked up): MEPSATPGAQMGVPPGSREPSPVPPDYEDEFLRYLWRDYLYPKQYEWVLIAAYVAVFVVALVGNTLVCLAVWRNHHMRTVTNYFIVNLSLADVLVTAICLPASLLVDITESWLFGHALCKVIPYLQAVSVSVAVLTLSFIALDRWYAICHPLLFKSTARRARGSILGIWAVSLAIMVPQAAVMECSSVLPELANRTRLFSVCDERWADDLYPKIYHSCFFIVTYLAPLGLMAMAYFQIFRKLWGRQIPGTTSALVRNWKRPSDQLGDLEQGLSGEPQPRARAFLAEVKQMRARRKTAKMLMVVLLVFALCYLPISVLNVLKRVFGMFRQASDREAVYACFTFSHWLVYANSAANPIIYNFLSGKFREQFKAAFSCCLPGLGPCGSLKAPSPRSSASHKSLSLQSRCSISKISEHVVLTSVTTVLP
OX1R antag-2 = OX1R (HCRTR1) antagonists, primary screen, fluorescence, CHO/OX1R cells, Fluo-8 calcium, orexin A | Orexin/Hypocretin receptor type 1 (Homo sapiens), O43613 | Fluo-8 calcium fluorescence | inhibition, % at 5 µM | 330,000 tested, 0.43% active | AID 434989, 2010;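 active = inhibition above its plate's threshold, mean inhibition of all tested compounds on the plate plus 3 SD, cut at about 37% in these data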;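 also: 0% = orexin A challenge wells and 100% = SB-334867-A antagonist wells; not every result past the cut was called active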
* hit, by the source's call. This is a subset, and most or all hits are left out here.

Structure	OX1R antag-1	OX1R antag-2
Cc1ccc(CNC(=O)CN(C(=O)C2(C)CC(=O)N=C3C=CC=CN32)c2ccccc2F)cc1 (stereo not drawn)	7	-9
O=S(=O)(c1ccc2c(c1)OCCO2)N1CCN(c2nc3ccccc3s2)CC1	10	-10
CC(=O)c1c(C)[nH]c(C(=O)Nc2nccs2)c1C	14	-15
CN1CCN(C(=O)CCc2nc3ccccc3c(=O)[nH]2)CC1	19	-21
CC(=O)c1ccc(NC(=S)N2CCCCCC2)cc1	3	-15
O=S(=O)(NC1CCCC1)c1cccc(S(=O)(=O)N2CCC(n3nnc4ccccc43)CC2)c1	36	-27
Cn1nc(C(C)(C)C)c([N+](=O)[O-])c1C(=O)Nc1ccccc1	26	-20
CCC(C)(C(=O)NC1CCCCC1)N(C(=O)c1cnccn1)c1c(C)n(C)n(-c2ccccc2)c1=O (stereo not drawn)	16	-12
CC(=O)Nc1ccc(N=Cc2ccc(OCc3ccccc3)cc2)cc1	11	1
CC(C)(C)C(=O)Nc1ccc(Cc2ccncc2)cc1	16	-7
O=C(CCNC(=O)c1ccc(Cl)cc1)Nc1ccc(S(=O)(=O)N2CCCCC2)cc1	8	-17
C=CCSc1nc2sc3c(c2c(=O)n1CC)CCC3	-9	-26

Some of these compounds in order of the OX1R antag-1 value, lowest first.
smiles,OX1R antag-1
CC(=O)c1c(C)[nH]c(C(=O)Nc2nccs2)c1C,14
CN1CCN(C(=O)CCc2nc3ccccc3c(=O)[nH]2)CC1,19
O=S(=O)(NC1CCCC1)c1cccc(S(=O)(=O)N2CCC(n3nnc4ccccc43)CC2)c1,36

Remaining list, next part:
Structure	OX1R antag-1	OX1R antag-2
CCN(CC)CCCN=Cc1c(O)n(-c2ccc(C)cc2)c(=O)c2ccccc12	29	-25
CCOC(=O)C1=C(CS(=O)(=O)c2ccc(F)c(C)c2)NC(=O)NC1c1ccc(O)c(O)c1 (stereo not drawn)	8	1
CCOC1=C/C(=C/c2c(N)n3nc(CC(=O)N4CCCCC4)sc3nc2=O)C=CC1=O	-3	2
CCCSCC(=O)Nc1ncc2c(n1)-c1ccccc1CC2	28	-21
CC1CCCC(NC(=O)CCC(=O)NCc2ccccc2)C1C (stereo not drawn)	-5	-16
CCc1sc(C(=O)NNC(=O)c2cncc(Br)c2)cc1C	3	-10
C=CCn1cc(F)c(=O)n(CC=C)c1=O	10	-4
CCCSc1nc(C)c(-c2csc(C(C#N)=C3CCCC3)n2)cc1C#N	4	-9
Cc1cccc(C)c1OCCCCN1CCCCC1	19	-9
O=C(C1CCCCC1)N1CCC(CO)(Cc2ccccc2Cl)CC1	4	-25
c1ccc(Cc2noc(CN3CCCN(C4Cc5ccccc5C4)CC3)n2)cc1	16	-28
Cc1ccc(NC(=O)COC(=O)CCc2c[nH]c3ccccc23)cc1[N+](=O)[O-]	20	-4
O=C(NCCCN1CCOCC1)c1ccc(S(=O)(=O)N2CCOCC2)cc1	0	-14
CCCC(C(=O)NC1CCCC1)N(CC1CCCO1)C(=O)c1snc(C(N)=O)c1N (stereo not drawn)	21	-29
Cn1c(SCC(=O)NCC2CCCO2)nc2c([nH]c3ccccc32)c1=O (stereo not drawn)	4	-4
COc1cc2c(cc1OC)C1Cc3ccc(OC)c(OC)c3CN1CC2 (stereo not drawn)	10	-22
CCCOc1ccc(C2C(C(=O)c3ccc(C)o3)=C(O)C(=O)N2Cc2ccco2)cc1OCC (stereo not drawn)	4	-38
O=c1cc(CN2CCOCC2)c2cc(Cl)ccc2o1	0	-14
CC(C)(C)c1ccc(C(=O)CC(=O)c2cc(Cl)ccc2O)cc1	1	7
CS(=O)(=O)N1CCCC(C(=O)Nc2cccc(F)c2)C1 (stereo not drawn)	6	1
Cc1ccccc1N1CCN(CC(=O)Nc2ccccc2C(=O)NC2CC2)CC1	0	-15
Cc1cc(Cl)c2ccccc2n1	23	-3
COc1cccc(C2=NOC(C(=O)NCc3cccnc3)C2)c1 (stereo not drawn)	-8	0
CC(C)(C)c1ccc(-c2nnc(SCCN3C(=O)c4ccccc4C3=O)o2)cc1	39	-23
COc1ccccc1CNC(=O)CCc1nc2ccccc2c(=O)[nH]1	22	-14
Cc1ccc(C)c(NC(=O)c2ccccc2O)c1	69	-4
COc1ccc(-c2cc(C3CCNCC3)[nH]n2)cc1	-6	-7
COC(=O)C(F)(F)Sc1c(C)[nH]c2ccccc12	3	-15
O=C(c1cc(F)ccc1F)C1CCCN(C(=O)c2ccc(F)cc2Cl)C1 (stereo not drawn)	14	-20
COc1ccccc1NC(=O)CN1CCSc2ccccc21	17	-7
COc1cc(O)c(CCC(=O)c2cc(OC)c(OC)c(OC)c2)c(OC)c1	22	-13
COc1ccc(C2NC(=O)NC(C)=C2C(=O)Nc2cc(C)ccc2C)cc1OC (stereo not drawn)	17	-2
O=C(O)C1C2CC2CN1C(=O)c1ccc(Cl)cc1 (stereo not drawn)	30	3
O=C(NC(=S)N1CCN(c2ccc(F)cc2)CC1)c1cccs1	41	-27
Cc1cc(NC(=O)CSc2nnc3c4c(C)c(C)sc4ncn23)no1	5	-6
CCOC(=O)c1sc(NC(=O)COC(=O)c2ccco2)nc1C	2	1

Look-ups from above.
`COc1ccc(C2NC(=O)NC(C)=C2C(=O)Nc2cc(C)ccc2C)cc1OC` (stereo not drawn) | OX1R antag-1 = 17
`COc1ccc(-c2cc(C3CCNCC3)[nH]n2)cc1` | OX1R antag-1 = -6
`COc1ccccc1CNC(=O)CCc1nc2ccccc2c(=O)[nH]1` | OX1R antag-2 = -14

Next section
Structure	OX1R antag-1	OX1R antag-2
NNc1ncnc2scc(-c3ccc(Cl)cc3)c12	40	-15
CCCOc1ccc(Cc2c(Cl)nc(SC)nc2N(C)C)cc1	16	-30
O=C(CSc1nnnn1-c1ccccc1)CSc1nnnn1-c1ccccc1	17	1
CC(C)C(NC(=O)c1ccc(Cl)cc1Cl)C(=O)N1CCN(S(=O)(=O)c2ccccc2)CC1 (stereo not drawn)	9	-19
O=C(CCSCCc1ccccn1)Nc1ccc(Br)cc1F	11	-6
Cc1nc2ccc(NC(=O)N3CCCCC3)cc2s1	-1	4
CCOc1cccc(OCCOc2ccccc2[N+](=O)[O-])c1	33	-5
COC(=O)[C@@]1(Cc2ccc(F)cc2)[C@H]2c3cc(C(=O)N(C)C)n(Cc4ccccn4)c3C[C@H]2CN1C(=O)c1ccccc1	5	-47
COc1ccccc1NC(=O)COC(=O)C12CC3CC(CC(Br)(C3)C1)C2	3	-9
CCOC(=O)N1CCN(C2CCCN(C(=O)c3cccc(N(C)C)c3)C2)CC1 (stereo not drawn)	11	-7
CCC(Oc1ccccc1)C(=O)Nc1cc(C)on1 (stereo not drawn)	5	-5
O=C1C2CC=CCC2C(=O)N1Cc1ccccc1 (stereo not drawn)	13	-6

Laid out differently: three of the compounds above
mol: CC(C)(C)C(=O)Nc1ccc(Cc2ccncc2)cc1
  OX1R antag-1: 16 | OX1R antag-2: -7

mol: O=C(CCNC(=O)c1ccc(Cl)cc1)Nc1ccc(S(=O)(=O)N2CCCCC2)cc1
  OX1R antag-1: 8 | OX1R antag-2: -17

mol: C=CCSc1nc2sc3c(c2c(=O)n1CC)CCC3
  OX1R antag-1: -9 | OX1R antag-2: -26

Remaining list, next part
Structure	OX1R antag-1	OX1R antag-2
Cc1ccc(SCc2cc(=O)[nH]c(Nc3nc(C)c4cccc(C)c4n3)n2)cc1	11	-17
O=C(O)CSc1nnc(-c2ccncc2)n1CCc1ccccc1	1	0
O=C(NC1CCCC1)C(c1cccnc1)N(C(=O)c1csnn1)C1CC1 (stereo not drawn)	5	-4
Cc1ccccc1-c1nnc(-c2ccc(Cl)cc2)o1	25	-47
CC(OC(=O)c1ccc(Cl)nc1)C(=O)NC(C)(C)C (stereo not drawn)	29	-8
CCOC(=O)N1CCC(Nc2c(NCCCN(CC)c3cccc(C)c3)c(=O)c2=O)CC1	23	-28
CCc1nc(-c2ccc(-c3ccc(OC)cc3)nc2OC)no1	10	-43
CCC(C(=O)NCCc1c[nH]c2cc(OC)ccc12)c1ccccc1 (stereo not drawn)	20	-15
CC(C)(C)NC(=O)CN(C(=O)CS(=O)CC(=O)Nc1ccc(F)cc1)c1ccc(Cl)cc1 (stereo not drawn)	10	-11
COc1cc(Cl)c(C)cc1NC(=O)c1ccccc1-n1cnnn1	10	-13
Cc1noc(C)c1S(=O)(=O)NCCCN1CCN(Cc2ccccc2)CC1	19	-17
O=C(COC(=O)CSc1nnc(-c2ccc(Cl)cc2)o1)Nc1cc(Cl)ccc1Cl	10	10
CS(=O)(=O)Nc1ccc(S(=O)(=O)N2CCCCCC2)cc1	5	-5
CCOc1cc(/C=N/NC(=O)Cn2nc([N+](=O)[O-])cc2C)cc(Br)c1OCc1ccccc1C	7	-23
O=C(Nc1ccccc1C(=O)Nc1ccccc1C(=O)O)c1ccccc1	6	-11
COc1ccc(CCNC(=O)CCC(=O)N2CC(C)Oc3ccccc32)cc1OC (stereo not drawn)	12	-28
CN(C)CCc1c[nH]c2ccc(Cn3cncn3)cc12	13	0
Cc1ccc(NC(=O)CSCC(=O)N2c3ccccc3CCc3ccccc32)cc1	27	-10
O=C(Nc1ccccc1)C1=C[C@@H](c2ccc(Br)cc2)C[C@@H](OCc2ccc(CO)cc2)O1	32	-44
CCOC(=O)c1ccn(CSc2c(F)c(F)cc(F)c2F)n1	7	-10
CCOC(=O)[C@H]1[C@H]2COc3cc(OC)ccc3[C@@H]2N2C(=O)CN(CC3CCCO3)C(=O)[C@@]12C (stereo partly drawn)	-2	-28
COc1ccccc1CC(=O)Nc1ccc(S(=O)(=O)N2CCCC2)cc1	2	5
CCOC(=O)Nc1ccc(C(=O)Oc2ccccc2)c(O)c1	6	-1
CCCCN1CC(O)=C(c2nc(-c3ccc(Cl)cc3)cs2)C1=N	12	-13
Fc1ccccc1COc1ccc(/C=N/NC(=S)NCc2ccccc2)cc1	9	-17
O=C(C1CC1)N1CCc2cc(Br)cc(S(=O)(=O)N3CCCCCC3)c21	38	-29
Cc1cc2c(=O)n(Cc3ccco3)c(SCC(=O)c3ccc(Cl)s3)nc2s1	16	-33
CC(=O)N1N=C(c2ccco2)CC1c1ccc(C)cc1 (stereo not drawn)	12	-20
CCn1c(C)c(C(C)=O)c(N2CCN(C(=O)c3ccco3)CC2)nc1=S	5	-17
CCOC(=O)C1(CCCc2ccccc2)CCN(CC(O)CO)CC1 (stereo not drawn)	10	-4
CC(C)c1ccc2c(c1)C(N1CCNCC1)Cc1ccc(F)cc1S2 (stereo not drawn)	3	-4
O=S1(=O)CCC(NC(=S)N2CCCCC2)C1 (stereo not drawn)	8	-18
CC(=O)c1ccc(NC(=O)C2CCCN2S(=O)(=O)c2ccc(F)cc2)cc1 (stereo not drawn)	24	-9
Cc1ccc(OCCC(=O)OCC(=O)N2CCN(S(=O)(=O)c3ccc(C)cc3C)CC2)cc1	23	-7
CCC1CCc2sc(C(=O)O)cc2C1 (stereo not drawn)	7	-3
CCOC(=O)c1c(-c2ccc(C)o2)csc1NC(=O)COC(=O)c1cccs1	18	-12
CC(=O)c1c(C(C)=O)c(C)n(-c2ccc(O)cc2)c1C	15	-15
O=C(COC(=O)COc1cccc(F)c1)NCCC1=CCCCC1	4	-26
O=C(Nc1ccc(N2CCOCC2)cc1)c1cccc2ccccc12	12	-9
O=C1/C(=C\c2ccc(-c3ccccc3Cl)o2)SC(=S)N1CC1CCCO1 (stereo not drawn)	11	-13
Cc1nc(-c2ccc(F)cc2)c(CC(=O)N(C)CC(=O)Nc2ccccc2Br)s1	4	-33
Cc1ccc(-c2nn(-c3ccccc3)cc2/C=C/C(=O)O)o1	17	-25
Cc1cc(OCC(=O)Nc2ccc(OCc3ccccc3)cc2)nc(C(C)C)n1	1	-10
Cc1ccc2occ(/C=N/NC(=O)c3ccccc3C)c(=O)c2c1	12	-16
Cc1cc(C(=O)N/N=C/c2cc(Br)cc(Br)c2OC(=O)c2cccc(F)c2)n[nH]1	13	-16
O=[N+]([O-])c1cccnc1N1CCN(c2ccc(F)cc2)CC1	16	-23
CCOC(=O)[C@H]1[C@H]2COc3ccc(Br)cc3[C@@H]2N2C(=O)CN(Cc3ccc(C)cc3)C(=O)[C@@]12C	0	5
CCOC(=O)c1ccc(NC(=S)N(Cc2cccnc2)Cc2ccco2)cc1	20	-19
CCc1ccccc1NC1=NCC(=O)N1Cc1ccc(OC)cc1	1	-22
COc1cc(/C=C/c2nc3ccccc3c(=O)[nH]2)ccc1OC(F)F	1	-13
CCNS(=O)(=O)c1ccc2nc(NC(=O)c3cccnc3)sc2c1	-1	4
COCC(=O)Nc1nc2n(n1)C(c1ccc(Cl)cc1)CC(c1ccc(OC)cc1)N2 (stereo not drawn)	12	-10
CC(C)COc1ccc(C(=O)N(CC(=O)Nc2ccccc2C(F)(F)F)Cc2ccco2)cc1	7	-29
COc1cccc(/C=C2\SC(N)=NC2=O)c1OS(=O)(=O)c1ccccc1	24	3
CCN(CC)S(=O)(=O)c1ccc(C(=O)OCC(=O)Nc2sc3c(c2C#N)CCCCC3)cc1	25	-7
O=C1C=C(c2cccc(Br)c2)C[C@@H](c2ccc(F)cc2)C1	9	-19
O=C(COC(=O)c1ccc(Cl)s1)c1ccc[nH]1	21	1
COc1ccc(C(C)=O)cc1COC(=O)CNC(=O)c1cc(C)cc(C)c1	32	-29
O=C(Cn1c(=O)oc2cc(S(=O)(=O)NCc3ccccc3)ccc21)NCc1ccco1	8	-8
CC(C)COc1cccc(C(=O)N2CCN(C(=O)c3ccco3)CC2)c1	4	-33
